Screening results deposited in PubChem by several laboratories.
MEX-5 binding: C. elegans MEX-5 TCR-2 RNA binding activity; Q9XUB2; MEX-5/FITC-TCR2 RNA binding, fluorescence polarization; stronger effect = lower value; activity score (negative = inhibition of binding), % at 10 µM; 300,000 tested, 0.38% active;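 active = inhibition past about -25% in most replicates, and total fluorescence under double the plate's negative control median, limit read from the data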;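 note: 0% = DMSO and -100% = 5 µM competing unlabeled TCR2 RNA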
Fam108B counter: blocks mouse Fam108B hydrolase in RBBP9 counter-screen. recombinant Fam108B, FP-Rh probe fluorescence polarization. inhibition, % at 9.51 µM. 300,000 tested, 0.33% active. AID 1947;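 active = inhibition above the screen mean inhibition plus 3 SD, computed separately per campaign, cut at about 18% in these data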;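 note: inhibitors lower polarization as less probe binds the enzyme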
PAD4 inh: blocks human protein arginine deiminase 4; recombinant PAD4, RCA probe fluorescence polarization; 330,000 tested, 0.41% active; inhibition, % at 6.36 µM;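 active = percent inhibition above a cutoff equal to the mean of all tested compounds plus 3 SD, cut at about 15% in these data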;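 note: 0% = PAD4 with RCA probe and DMSO and 100% = probe without PAD4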
Target sequence (Q9UM07 whole entry, looked up): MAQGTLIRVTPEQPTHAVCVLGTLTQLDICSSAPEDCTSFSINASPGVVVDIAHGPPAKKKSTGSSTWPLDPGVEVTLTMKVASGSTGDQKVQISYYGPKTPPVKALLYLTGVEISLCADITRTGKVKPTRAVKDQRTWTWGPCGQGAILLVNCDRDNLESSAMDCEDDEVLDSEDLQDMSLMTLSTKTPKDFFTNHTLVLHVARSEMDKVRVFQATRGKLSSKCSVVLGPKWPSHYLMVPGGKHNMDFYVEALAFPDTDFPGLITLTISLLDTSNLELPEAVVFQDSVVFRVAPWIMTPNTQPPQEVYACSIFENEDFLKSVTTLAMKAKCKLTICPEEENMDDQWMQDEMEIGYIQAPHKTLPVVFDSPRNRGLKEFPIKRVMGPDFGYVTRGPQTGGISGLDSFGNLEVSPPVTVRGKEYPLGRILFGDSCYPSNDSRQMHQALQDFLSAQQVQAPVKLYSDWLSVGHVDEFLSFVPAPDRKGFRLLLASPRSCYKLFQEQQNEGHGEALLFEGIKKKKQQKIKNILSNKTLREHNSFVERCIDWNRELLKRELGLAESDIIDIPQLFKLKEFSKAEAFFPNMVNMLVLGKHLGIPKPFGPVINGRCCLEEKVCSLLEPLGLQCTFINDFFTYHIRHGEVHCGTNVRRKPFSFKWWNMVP
GLD-1 RNA inh: GLD-1-TGE RNA interaction inhibition (C. elegans) | Q17339 | purified GLD-1 + fluorescein TGE RNA, fluorescence polarization | inhibition, % at 5.96 µM | 320,000 tested, 0.44% active;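 active = percent inhibition above a per-plate cutoff, the plate mean of test compounds plus 3 SD, cut at about 30% in these data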;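 note: 0% = DMSO wells with GLD-1 and probe and 100% = wells lacking GLD-1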
TPT1 inh: blocks Candida albicans tRNA 2'-phosphotransferase. recombinant caTPT1, FP RNA substrate dephosphorylation. inhibition, % at 5 µM. 300,000 tested, 0.81% active;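 active = inhibition above the mean of all tested compounds plus 3 SD, set per screening campaign, cut at about 24% in these data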;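 note: plate controls were DMSO alone for no effect and ferristatin control at 100 nM for full effect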
MCL1 BIM primary: inhibitors of human MCL1 binding to BIM-BH3 peptide; GST-MCL1 / FITC-Bim-BH3 fluorescence polarization; inhibition, % at 10.9 µM; 320,000 tested, 0.68% active; AID 2057;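 active = inhibition above the mean inhibition of all tested compounds plus 3 SD, set per campaign, cut at about 40% in these data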;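 note: 0% = DMSO wells and 100% = unlabeled Bim-BH3 peptide control; higher means more loss of mP so more displacement of Bim peptide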
Target sequence (Q07820 whole entry, looked up): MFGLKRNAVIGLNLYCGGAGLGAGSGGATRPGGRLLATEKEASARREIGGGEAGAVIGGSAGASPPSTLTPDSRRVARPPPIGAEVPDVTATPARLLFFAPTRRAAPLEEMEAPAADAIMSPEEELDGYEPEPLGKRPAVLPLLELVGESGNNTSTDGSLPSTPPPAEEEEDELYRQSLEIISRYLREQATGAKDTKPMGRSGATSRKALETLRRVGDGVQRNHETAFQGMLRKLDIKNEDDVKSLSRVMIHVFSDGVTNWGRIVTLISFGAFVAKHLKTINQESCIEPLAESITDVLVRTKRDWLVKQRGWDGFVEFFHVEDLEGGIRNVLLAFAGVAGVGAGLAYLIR
Bcl-xL primary: Bcl-xL (human) inhibition; Q07817; GST-Bcl-xL / FITC-Bim BH3 peptide fluorescence polarization; inhibition, % at 10.9 µM; 320,000 tested, 0.7% active; AID 2129;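 active = inhibition above the mean of all tested compounds plus 3 SD, cutoff set per campaign, cut at about 30% in these data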;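 note: 0% = DMSO wells and 100% = unlabeled Bim-BH3 peptide competitor; inhibitors lower millipolarization by displacing the labeled peptide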
GSTO1 inh: blocks human GSTO1 in RBBP9 counter-screen; inhibition, % at 5.96 µM; P78417; recombinant GSTO1, activity-based probe fluorescence polarization; 300,000 tested, 1.1% active; AID 1974;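 active = inhibition above the campaign mean inhibition plus 3 SD, cut at about 35% in these data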;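 note: 0% = GSTO1-1 with DMSO and 100% = wells lacking GSTO1-1 enzyme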
* hit, by the source's call; x = not tested or not shown.

SMILES	MEX-5 binding	Fam108B counter	PAD4 inh	GLD-1 RNA inh	TPT1 inh	MCL1 BIM primary	Bcl-xL primary	GSTO1 inh
CC(=O)OCCc1c(C)nc2nc[nH]n2c1=O	0.2	5.6	-0.4	2.9	-2.5	5.3	2.1	6.2
Cc1nc2nc[nH]n2c(=O)c1NC(=O)CCc1ccccc1	-0.5	4.7	0.8	8.0	1.6	-6.3	-0.9	0.8
Cc1c(CN(C)C(=O)c2sc3cc(Cl)ccc3c2Cl)cnn1C	-1.2	2.1	3.7	-3.0	-5.0	-0.1	-0.5	1.3
CN(C)c1ccc(S(=O)(=O)N2CCCCC2)cc1NC(=O)C1CSC2(C)CCC(=O)N12 (stereo unspecified)	x	x	1.6	0.8	x	-7.8	-3.3	x
CCN(CC)S(=O)(=O)c1cccc(C(=O)OCC(=O)Nc2ccc3c(c2)c2ccccc2n3CC)c1	-0.1	7.7	-2.1	1.0	1.9	-11.1	-2.1	-26.9
O=C(CN1CCN(c2ccccc2O)CC1)Nc1cc(S(=O)(=O)N2CCCC2)ccc1Cl	x	x	-4.1	5.2	x	-6.7	3.6	x
S=c1[nH]nc(-c2ccccn2)n1/N=C/c1c(Cl)cccc1Cl	2.3	1.7	-0.6	-5.5	0.3	4.5	-2.8	11.4
COc1cccc(NC(=O)CN2CCCCCC2)c1	0.4	-0.8	0.1	-4.3	-0.9	5.6	-1.0	2.8
CCOc1ccc(S(=O)(=O)N2CCN(Cc3ccc4c(c3)OCO4)CC2)cc1OCC	3.8	1.6	-0.3	-3.2	-0.8	-0.2	-0.9	10.0
CCOc1ccccc1OCCNC1CCCC1	0.6	1.7	2.2	3.0	-3.5	0.7	4.1	1.7
Cn1c(N)c(C(=O)COC(=O)c2cc(S(=O)(=O)N3CCCCC3)ccc2Cl)c(=O)n(C)c1=O	-0.6	-0.8	-1.2	5.6	-1.8	-24.7	-0.9	2.8
Cc1ccc(NS(=O)(=O)c2ccc(C(=O)N3CC(C)CC(C)C3)cc2)cc1 (stereo unspecified)	0.1	-1.8	0.8	2.0	0.1	-3.6	0.4	7.0
COC(=O)C1=CN(c2cccc(C(F)(F)F)c2)C=C(C(=O)OC)C1c1ccc(O)c(OC)c1	-2.8	-1.1	1.4	2.7	1.9	0.3	-3.0	-1.0
Cc1ccc(C)c(S(=O)(=O)N2CCN(C(=O)Cn3c(=O)cnc4ccccc43)CC2)c1	-1.7	-1.6	0.6	-2.3	3.0	1.1	-1.3	-5.5
Cc1ccc(Cn2ccc(=O)c(Cc3c(Cl)cccc3Cl)c2C)cc1	1.4	6.9	-3.3	0.6	-1.1	12.3	9.7	15.3
S=c1[nH]nc(-c2ccc(Cl)cc2Cl)n1-c1ccccc1	-1.1	2.0	3.8	-1.0	-4.0	-8.6	7.3	5.8
COC(=O)c1noc(-c2ccc(C)cc2)n1	2.5	2.8	1.4	0.8	-3.0	8.0	1.0	7.3
COc1cccc(S(=O)(=O)N2CCN(Cc3ccc4c(c3)OCO4)CC2)c1	1.6	0.2	-1.2	-0.2	0.5	8.3	7.6	-1.1
Cc1ccc(-c2[nH]n3c(=O)c4c(nc3c2C)CCCC4)cc1	0.3	-0.8	-6.5	-5.0	1.8	0.4	6.8	-0.8
O=C(NCc1ccc2c(c1)OCO2)C1CCN(S(=O)(=O)c2ccc(F)cc2)CC1	0.1	-1.4	-2.7	4.7	1.1	-1.1	9.4	-3.3

Part of the list above in order of length of the SMILES, low to high.
SMILES	MEX-5 binding	Fam108B counter	PAD4 inh	GLD-1 RNA inh	TPT1 inh	MCL1 BIM primary	Bcl-xL primary	GSTO1 inh
CC(=O)OCCc1c(C)nc2nc[nH]n2c1=O	0.2	5.6	-0.4	2.9	-2.5	5.3	2.1	6.2
Cc1nc2nc[nH]n2c(=O)c1NC(=O)CCc1ccccc1	-0.5	4.7	0.8	8.0	1.6	-6.3	-0.9	0.8
Cc1c(CN(C)C(=O)c2sc3cc(Cl)ccc3c2Cl)cnn1C	-1.2	2.1	3.7	-3.0	-5.0	-0.1	-0.5	1.3
Cc1ccc(Cn2ccc(=O)c(Cc3c(Cl)cccc3Cl)c2C)cc1	1.4	6.9	-3.3	0.6	-1.1	12.3	9.7	15.3
CCOc1ccc(S(=O)(=O)N2CCN(Cc3ccc4c(c3)OCO4)CC2)cc1OCC	3.8	1.6	-0.3	-3.2	-0.8	-0.2	-0.9	10.0
O=C(CN1CCN(c2ccccc2O)CC1)Nc1cc(S(=O)(=O)N2CCCC2)ccc1Cl	x	x	-4.1	5.2	x	-6.7	3.6	x
Cc1ccc(C)c(S(=O)(=O)N2CCN(C(=O)Cn3c(=O)cnc4ccccc43)CC2)c1	-1.7	-1.6	0.6	-2.3	3.0	1.1	-1.3	-5.5
COC(=O)C1=CN(c2cccc(C(F)(F)F)c2)C=C(C(=O)OC)C1c1ccc(O)c(OC)c1	-2.8	-1.1	1.4	2.7	1.9	0.3	-3.0	-1.0
Cn1c(N)c(C(=O)COC(=O)c2cc(S(=O)(=O)N3CCCCC3)ccc2Cl)c(=O)n(C)c1=O	-0.6	-0.8	-1.2	5.6	-1.8	-24.7	-0.9	2.8

Later entries:
SMILES	MEX-5 binding	Fam108B counter	PAD4 inh	GLD-1 RNA inh	TPT1 inh	MCL1 BIM primary	Bcl-xL primary	GSTO1 inh
COc1cccc(OC)c1C(=O)Nc1ccc(S(=O)(=O)N2CCCCC2)cc1	-3.8	-2.6	1.8	-4.4	0.4	-9.9	-7.0	0.9
COc1cccc(OCC(=O)Nc2ccncc2)c1	1.3	-0.5	2.8	0.8	-2.6	-4.8	-1.7	-3.6
NC(=O)c1nc(C2CCCCC2)nc2c1[nH]c(=O)n2-c1ccc(F)cc1	-2.6	-2.3	0.0	-0.2	-2.8	6.0	1.8	5.0
Cc1ccc(C)c(-n2c(-c3csc(C)c3)n[nH]c2=S)c1	x	-7.6	4.1	1.0	-5.0	-16.6	-3.6	2.0
CSc1ccc(NC(=O)Nc2cccn(Cc3ccccc3F)c2=O)cc1	-2.4	7.7	5.7	8.7	-0.5	-0.6	0.1	6.2
O=S(=O)(c1cccc(F)c1)N1CCN(Cc2cc3c(cc2Br)OCCO3)CC1	x	x	4.8	0.4	x	-2.5	-1.4	x
CCN(CC)S(=O)(=O)c1cc(C(=O)OCC(=O)Nc2cccc(S(=O)(=O)N(C)C)c2)ccc1F	0.6	0.8	1.9	6.5	1.1	0.0	6.0	-6.7
CCOC(=O)CSc1nc2c(sc(=S)n2-c2ccccc2OC)c(=O)n1-c1ccccc1OC	-5.0	-0.8	-5.8	-1.8	-1.2	-3.9	-0.6	-1.9
COc1cc(OC)c(/C=N/n2c(C)nnc2C)c(OC)c1	-1.3	-4.9	-0.1	-1.4	-1.9	-2.8	-0.9	4.9
Cc1ccc(C)c(S(=O)(=O)N2CCN(C(=O)Cn3cnc4c3c(=O)n(C)c(=O)n4C)CC2)c1	-2.5	-2.7	5.2	1.9	-3.9	4.1	4.3	4.8
Cc1cccc(CCNc2nc3ccc(C)cc3n3cnnc23)c1	2.3	0.2	-2.5	1.0	-4.3	3.1	4.2	-2.5
COc1ccc(NS(=O)(=O)c2ccc(-c3cnc(C4CC4)o3)cc2)cc1OC	-5.3	-1.6	-3.4	7.6	-3.1	-7.0	2.3	0.1
COc1ccc(OC)c(NC(=O)COC(=O)c2c3c(nc4ccccc24)CCCC3)c1	2.4	4.2	-7.0	13.2	-3.7	14.1	7.1	15.1
Cc1cc(C)c(NC(=O)C2CCCN2CCO)c(C)c1 (stereo unspecified)	1.7	-0.9	-5.7	0.2	-2.6	10.7	8.4	-1.5
COc1ccc(-c2cnnn2-c2ccc([N+](=O)[O-])cc2)cc1	-2.0	-4.1	2.1	-0.3	3.3	10.6	4.2	0.9
O=C(NCCCn1ccnc1)c1ccc2c(c1)OCCO2	-0.6	-2.0	-6.6	5.6	-2.5	8.7	8.4	-1.8
Cc1ccc(C)c(N2N=C(C(=O)NCCN3C(=O)S/C(=C\c4cccnc4)C3=O)CCC2=O)c1	-1.0	-0.2	1.4	6.4	-0.5	-7.0	-7.6	-13.0
COc1cc2c(cc1OC)C(c1ccccc1[N+](=O)[O-])N(C(C)=O)CC2 (stereo unspecified)	-0.2	-0.1	-2.0	5.9	-0.8	8.8	7.8	4.7
O=[N+]([O-])c1c(NCCO)cc(N2CCC3(CC2)OCCO3)c2nonc12	-1.6	8.5	-7.0	-11.8	1.4	-2.0	-1.3	-5.6
COc1ccc(OC)c(-n2c(-c3cccc(C)c3)n[nH]c2=S)c1	1.1	-0.8	-1.6	3.6	2.0	-9.3	-12.4	-1.0
COc1ccc(-c2nc(-c3ccc(NC(=O)c4ccc(Br)o4)cc3)no2)cc1OC	2.8	-22.0	-2.4	-2.0	5.0	-7.4	8.6	-10.0
COc1ccccc1NS(=O)(=O)c1ccc(C(=O)N2CCCC(C(F)(F)F)C2)cc1 (stereo unspecified)	x	x	-0.3	2.7	x	8.7	6.4	x
Cc1cc(Br)c2c(c1)C(O)(N1CCCCC1C)C(=O)N2 (stereo unspecified)	-1.8	1.0	0.7	-5.0	-4.2	3.6	3.3	-1.9
CN(C)C(CNc1ccc(C(F)(F)F)cc1[N+](=O)[O-])c1ccccc1 (stereo unspecified)	0.6	-3.6	-11.1	-10.6	-5.6	-7.3	-4.5	-14.1
Cc1cc2cc(C(c3nnnn3Cc3ccco3)N3CCc4ccccc43)c(=O)[nH]c2cc1C (stereo unspecified)	-4.1	2.9	-5.0	16.1	11.2	9.7	21.1	3.8
CCOC(=O)N1CCN(c2cc(NCCO)c([N+](=O)[O-])c3nonc23)CC1	-1.4	0.4	-1.5	-6.1	-2.4	-0.5	3.4	-1.4
CCOc1ccc(S(=O)(=O)N2CCCCC2)cc1NC(=O)Cc1ccccc1	x	x	0.6	6.5	x	-7.5	-2.5	x
C=CCN(c1ccc(F)cc1)S(=O)(=O)c1cc(C(=O)NC2CCC(O)CC2)ccc1Cl (stereo unspecified)	x	x	4.6	4.3	x	3.6	4.1	x
CN(c1ccccc1)S(=O)(=O)c1cccc(NC(=O)Nc2ccc(Cl)cc2C#N)c1	1.5	-2.6	-4.4	10.1	2.1	0.8	3.2	-5.5
CCN(CC)S(=O)(=O)c1ccc(C(=O)NCCCn2ccnc2)cc1	1.1	-0.5	-7.6	1.9	-1.7	-0.2	-1.7	1.2
COc1ccc(NC(=O)c2cccc(S(=O)(=O)N3CCOCC3)c2)cc1	-0.9	0.3	0.4	-5.6	3.1	-8.8	-1.3	1.6
O=C(CN1CCN(c2ccc(O)cc2)CC1)Nc1cc(S(=O)(=O)N2CCCCC2)ccc1Cl	4.1	1.8	-7.0	3.1	0.5	22.4	24.8	23.2
O=C(N/N=C/c1cn(CCOc2ccccc2)c2ccccc12)c1ccncc1	-0.5	14.9	1.0	-5.8	1.0	3.6	5.0	-2.1
COc1ccccc1N1CCN(C(=O)C2CCN(S(=O)(=O)c3ccc(Cl)cc3)CC2)CC1	x	2.0	6.1	9.0	-1.6	6.3	5.9	0.1
NNc1nc2sc3c(c2c(=O)[nH]1)CCc1ccccc1-3	-3.4	3.2	-5.3	-0.1	4.7	-3.4	3.0	2.5
Cc1noc(C)c1COC(=O)c1cc(S(=O)(=O)N2CCOCC2)ccc1F	x	x	-2.6	2.8	x	-1.2	-3.9	x
COc1ccccc1N/C=C(\C#N)c1nc2ccccc2[nH]1	-0.7	2.9	-3.8	-14.8	9.2	-5.4	-5.5	7.9
COc1ccc2cc(C#N)c(N3CCOCC3)nc2c1	-10.8	-0.8	-1.5	-5.0	1.5	5.0	8.1	0.8
CCC(=O)N1CCc2cc(S(=O)(=O)NC(C(=O)N3CCN(c4ccc(F)cc4)CC3)C(C)C)ccc21 (stereo unspecified)	1.2	-3.1	5.2	4.8	1.7	-2.2	0.7	3.6

The list is partial; rates above refer to the full screens.
